Compound activity (PubChem)
GLA inh pH 4.5 = blocks human alpha-galactosidase A at pH 4.5; P06280; purified enzyme, 4-MU-alpha-Gal fluorescence, pH 4.5; activity change, negative = inhibition, % at 105 µM; 230,000 tested, under 10 active; inconclusive = small, poorly fitted or top-dose-only inhibition, or a rising curve; inactive = flat fitted curve, though single readings scatter; no compound was filed as active;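 also: 0% = full activity with enzyme and -100% = basal without enzyme; dose as in the result columns while the protocol names 77 µM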
Target sequence (P06280 whole entry, looked up): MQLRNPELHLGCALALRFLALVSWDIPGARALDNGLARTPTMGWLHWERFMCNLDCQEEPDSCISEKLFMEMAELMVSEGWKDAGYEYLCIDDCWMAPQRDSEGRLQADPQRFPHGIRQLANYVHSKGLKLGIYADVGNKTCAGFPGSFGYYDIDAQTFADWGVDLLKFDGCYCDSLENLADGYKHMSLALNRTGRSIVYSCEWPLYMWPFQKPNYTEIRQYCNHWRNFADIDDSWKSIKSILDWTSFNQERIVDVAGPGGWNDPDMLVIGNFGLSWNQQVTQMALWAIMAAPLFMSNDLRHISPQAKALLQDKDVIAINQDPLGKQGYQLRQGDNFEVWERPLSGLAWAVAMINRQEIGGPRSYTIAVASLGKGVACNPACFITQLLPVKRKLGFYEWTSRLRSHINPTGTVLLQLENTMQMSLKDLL
Rango-impB inh = Rango-importin beta binding inhibition; 0.031% of 340,000 active; Rango CFP/YFP FRET sensor + importin beta, 45 min; Q14974; Potency, µM (top dose mostly 92.2 µM), without a hit: at the top dose inhibition of complex formation; active = rising FRET ratio curve, often small or poorly fitted; inconclusive = mostly compound fluorescence or quenching in the first reads; inactive = flat curves in all reads;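 also: potency is read from the fitted curve at half-maximal effect; 0% = DMSO wells and 100% = buffer wells lacking importin beta; nearly all actives have a fitted effect of over 15% in size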
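FRET biosensor Rango (snurportin 1 IBB between N-terminal EYFP and C-terminal Cerulean), 50 nM in PBS/1 mM DTT/0.02% Tween-20/0.1% BSA, preincubated 5 min RT with compound; 0.125 microM importin beta added, 45 min RT, CFP/YFP FRET ratio read.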
Rango release inh = inhibitors of RanGTP-induced Rango-importin beta complex dissociation | O95149+P62826 | Biochemical FRET Rango-importin beta, RanGTP-induced dissociation | Potency, µM (top dose mostly 46.1 µM), without a hit: at the top dose activity change, negative = inhibition | 0.071% of 340,000 active | AID 540253; active means falling FRET ratio curve, often poorly fitted, with flat reads before Ran was added; inconclusive means other falling curves, or compound fluorescence or quenching; inactive means flat or rising ratio curve;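 also: potency is read from the fitted curve at half-maximal effect; % of control where 0% means no effect; nearly all actives have a fitted effect of over 45% in size; -100% = wells without RanGTP and RCC1; the record marks most hits as doubtful in a second field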
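Rango FRET biosensor (snurportin-1 IBB flanked by N-terminal EYFP and C-terminal CFP10) at 0.1 uM, with 0.25 uM importin beta in PBS, 1mM DTT, 0.02% Tween-20, 0.1% BSA. 0.6 uM Ran, 2mM GTP and 0.2 uM RCC1 were then added for 45 min at room temperature. Inhibition read as loss of FRET rise.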
miR-21 FLuc = raises the signal of a miR-21 reporter; HeLa miR-21 FLuc reporter, luciferase, 48 h; 340,000 tested, under 10 active; Potency, µM (series often up to 38.3 µM), inactives show top-dose reporter change, positive = more light; active = well fitted rising curve with a large enough effect; inconclusive = small, poorly fitted or top-dose-only effect; inactive = no such curve, though single readings can be large or run the other way;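 also: % of control where 0% means no effect; miR-21 action dims this reporter so a rising signal means less miR-21 action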
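HeLa cells endogenously expressing miR-21, stably carrying CMV-driven firefly luciferase with a downstream miR-21 binding site, 2000 cells/well. Titrations up to approximately 40 uM, 48 hours; luciferase luminescence read.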
An asterisk follows results filed as active; ? = inconclusive; / = no result given; & = joins results of further samples; [ ] = another dose, or the depositor's remark. Only part of the results is shown; count on the stated rates, not on these rows.

canonical_smiles	GLA inh pH 4.5	Rango-impB inh	Rango release inh	miR-21 FLuc
CCOC(=O)CCc1c(C)c2ccc(OCc3nn[nH]n3)c(C)c2oc1=O	2	-0.2%	8%	1%
Cc1ccc(S(=O)(=O)NCC(=O)Nc2ccc3c(c2)OCO3)cc1	/	-5.7%	29%	-1%
COc1ccc(C2C(C#N)=C(C)NC3=C2C(=O)CC(C)(C)C3)c(OC)c1 (centres undefined)	11	-0.9%	-9%	-3%
O=C(CC(CC(=O)c1ccc(Cl)cc1)c1ccccc1C(=O)O)c1ccc(Cl)cc1	/	0.0%	13%	-1%
Cc1ccccc1NC(=O)c1cccc(OCc2c(C)noc2C)c1	5	0.7%	8%	-18%
CCOc1c(Br)cc(CNc2ccc(N3CCN(C(C)=O)CC3)cc2)cc1OC	-9	0.1%	9%	29%
NC(=O)c1c(NC(=O)c2cc3ccccc3o2)sc2c1CCC2	-4	?	?	-54%
CCC(Oc1ccccc1)C(=O)N1CCN(c2ccccn2)CC1 (centres undefined)	1	3.5%	-18%	-4%
Cc1oc2c(CN3CCCC3)c(O)ccc2c(=O)c1-c1ccc(Cl)cc1	7	1.0%	1%	-2%
COc1cc(C#Cc2c(-c3ccccc3OC)oc3ccccc23)cc(OC)c1	/	?	-2%	/
Cc1nn(CC(=O)c2ccc(Br)s2)c(C)c1[N+](=O)[O-]	7	-0.5%	23%	2%
Cc1cc(C)n(-c2ccc(C(=O)OCC(=O)Nc3cc(S(C)(=O)=O)ccc3Cl)cc2)n1	/	7.0%	5%	/
COc1ccccc1/C=C(\C#N)C(=O)Nc1ccc(S(N)(=O)=O)cc1	-4	-4.0%	3%	3%
O=S(=O)(Cc1noc(-c2ccccc2Cl)n1)c1ccccn1	-12	1.7%	-3%	-60%
COc1ccc(C(=O)COC(=O)Cc2c[nH]c3ccccc23)c(OC)c1	/	-0.6%	11%	/
C#CCN1CC(C)/C(=N/O)CC1C (centres undefined)	-9	-1.0%	-7%	0%
COc1cccc(C(=O)NCc2nnc(SCC(=O)Nc3nccs3)n2-c2ccccc2)c1	3	-1.6%	-15%	-1%
CCOC(=O)C(=COC(=O)c1ccccc1)NC(=O)Cc1ccccc1	/	0.2%	5%	/
Cc1cc(N/N=C/c2ccccc2Cl)nc(NCc2ccccc2)n1	0	-1.9%	-8%	10%
C=CCNCCCCOc1ccc(Br)cc1C	2	2.7%	-4%	-5%
CCCOC(=O)CCCN1C(=O)/C(=C2\SC(=S)N(CCCC(=O)OCCC)C2=O)SC1=S	-4	-2.0%	-7%	0%
O=C(O)/C=C/c1cnn(-c2ccccc2)c1	-6	3.3%	2%	-23%
O=C(COc1ccc([N+](=O)[O-])cc1Cl)N1CCc2ccccc21	/	-0.7%	-5%	/
COc1ccccc1CNC(=O)CCNS(=O)(=O)c1ccc2c(c1)oc(=O)n2C	/	-0.1%	-2%	0%&-2%
COc1cc(NC(=O)Cc2ccc(S(=O)(=O)N3CCOCC3)s2)c(OC)cc1Cl	/	-5.7%	19%	/

Other records
canonical_smiles	GLA inh pH 4.5	Rango-impB inh	Rango release inh	miR-21 FLuc
O=C(C1=NN(c2ccccc2)C2C(=O)N(c3ccccc3)C(=O)C12)c1ccccc1 (centres undefined)	-7	?	?	-5%
Cn1c(=O)c2c(ncn2CC(=O)OCC(=O)Nc2ccc(F)cc2F)n(C)c1=O	/	-1.8%	0%	/
CCn1c(Cc2ccccc2)nnc1SCC(=O)Nc1ccc(OC)cc1	-4	6.2%	0%	-2%
CC(C)N(Cc1ccccc1)C(=O)COC(=O)C1CCN(c2ccc(C(F)(F)F)cn2)CC1	/	-0.4%	-1%	/
COc1ccc(OCC(=O)NC2CCCN(Cc3ccc(Cl)cc3)C2)cc1 (centres undefined)	/	-0.7%	-4%	12%
CC(=O)Nc1ccc(-c2nc3ccccc3c(=O)o2)cc1	/	-2.9%	-3%	-1%
CC(C)(C)OC(=O)N/N=C\c1ccc(OC(=O)c2ccco2)cc1	3[21.1 µM]	-1.2%	17%	-43%
Cc1nnc(SCC(=O)NCc2ccccc2Cl)[nH]c1=O	-6	-3.0%	0%	2%
O=C(COc1cccc(NC(=O)c2cccc([N+](=O)[O-])c2)c1)c1ccc(Br)cc1	6	3.0%	-6%	?
CN(c1ccccc1)S(=O)(=O)c1cccc(NC(=O)c2cncc(Br)c2)c1	-9	4.2%	21%	?
Cc1ccc(C(=O)NC(C)c2ccccc2)o1 (centres undefined)	-14	-2.3%	-11%	-8%
Cc1ccc(C(=O)OCC(=O)NCc2cccs2)cc1S(=O)(=O)N1CCOCC1	9	-1.6%	-8%	-1%
COc1ccc(N2C=C3C(=O)C(C)(OC(=O)CCc4ccccc4)C(=O)C=C3C=C2c2ccc(C#N)cc2)cc1 (centres undefined)	12&-11	?	-29%	2%
CCCCn1nnnc1NCc1cccnc1	3	-3.2%	-4%	-11%
O=C1c2ccccc2C(=O)N1CC#CCN1CCN(C2CCCCC2)CC1	9	0.9%	8%	0%
O=C(NC(=S)Nc1cccc(Cl)c1Cl)C1CC1	/	1.1%	-14%	-23%
Cc1nc(C(=O)N2CCOCC2)sc1C1(C)CC(c2ccccc2)=NO1 (centres undefined)	5	1.7%	15%	-6%
COc1ccccc1C(=O)N1CCCC(c2nc(-c3cc(OC)c(OC)c(OC)c3)no2)C1 (centres undefined)	-9	-2.3%	-1%	9%
COc1cc(OC)cc(C(=O)N(Cc2nc(-c3cccc(C)c3)no2)C(C)C)c1	-6	2.7%	-11%	-8%
CCn1cc(CN2CCC(C(=O)Nc3ccc(Oc4cccnc4)cc3)CC2)c(C)n1	/	2.9%	-7%	0%
COc1ccc(OC)c(-c2oc3ccccc3c(=O)c2O)c1	1	?	?	-28%
COc1ccc(NC(=O)COC(=O)C(NC(=O)c2ccc(C)cc2)C(C)C)cn1 (centres undefined)	/	-2.0%	-4%	/
CC[C@@H](C)[C@@H](C(=O)N1CCNCC1)n1cc(CCC(=O)O)nn1	-12	-0.5%	22%	0%
COc1ccc(N/C(=C2\CCCC2=O)C2CCCCC2)cc1	/	?	-23%	/
CN(C)CCCNc1c2c(nc3cc(-c4cccc(F)c4)nn13)CCC2	1	-3.3%	-6%	-7%

Given with two lines to a compound: part of the list above
Results follow in this order: GLA inh pH 4.5, Rango-impB inh, Rango release inh, miR-21 FLuc
COc1ccc(OC)c(-c2oc3ccccc3c(=O)c2O)c1
  1, ?, ?, -28%
COc1ccc(OCC(=O)NC2CCCN(Cc3ccc(Cl)cc3)C2)cc1 (centres undefined)
  /, -0.7%, -4%, 12%
CCCCn1nnnc1NCc1cccnc1
  3, -3.2%, -4%, -11%
COc1ccc(N/C(=C2\CCCC2=O)C2CCCCC2)cc1
  /, ?, -23%, /
CN(c1ccccc1)S(=O)(=O)c1cccc(NC(=O)c2cncc(Br)c2)c1
  -9, 4.2%, 21%, ?
CCn1cc(CN2CCC(C(=O)Nc3ccc(Oc4cccnc4)cc3)CC2)c(C)n1
  /, 2.9%, -7%, 0%

(more compounds)
Compound,GLA inh pH 4.5,Rango-impB inh,Rango release inh,miR-21 FLuc
COc1cc(CNn2c(C)n[nH]c2=S)cc(Br)c1OCc1ccc(F)cc1,4,2.7%,-3%,4%
CC(=O)Nc1ccc(NS(=O)(=O)c2c(Cl)cccc2Cl)cc1,3,0.1%,-10%,-3%
CN(C)CCCN(C(=O)COc1ccccc1)c1nc2cc3c(cc2s1)OCO3,/,0.1%,0%,-7%
O=[N+]([O-])c1ccc(N2CCNCC2)c(S(=O)(=O)N2CCOCC2)c1,-6,-0.7%,1%,-1%
COc1cc(CN(C)CCc2ccccn2)cc(OC)c1OC,1,-6.3%,-21%,-10%
Brc1ccccc1-c1nnc(COc2cccc3cccnc23)o1,-2,2.7%,-12%,-36%
Cc1cccc2cc(C3CC(c4ccco4)=NN3C(=O)CCC(=O)O)c(Cl)nc12 (centres undefined),-21,-0.7%,7%,-9%
Cc1noc(C)c1C(=O)OCC(=O)NCc1ccccc1,/,-5.2%,1%,/

Additional compounds:
Compound,GLA inh pH 4.5,Rango-impB inh,Rango release inh,miR-21 FLuc
C[C@H](CO)N1C[C@H](C)[C@@H](CN(C)Cc2ccc(Cl)c(Cl)c2)Oc2c(NS(=O)(=O)c3cn(C)cn3)cccc2C1=O,/,3.5%,3%,/
Cc1cccc(N2N=C(C(=O)N3Cc4ccccc4CC3C(N)=O)CCC2=O)c1 (centres undefined),/,-0.7%,0%,/
Cc1cc(C)n(-c2cc(=O)n(C)c(=O)n2C)n1,6,-1.8%,1%,4%
Cc1nc(C)c(C(=O)C2=C(O)C(=O)N(CCN3CCOCC3)C2c2cccnc2)s1 (centres undefined),-10,?,-13%,1%
COc1ccccc1NC(=O)CSc1nnc(C2CCCCC2)n1-c1ccccc1,5,-0.1%,-3%,14%
CC(C)C(C)NC(=O)COc1ccc([N+](=O)[O-])cc1Cl (centres undefined),-3,-3.4%,1%,1%
S=C(NCCc1ccccn1)NC1CCCCC1,-1,-1.2%,21%,-59%
O=C(NCc1ccccc1)C1=C[C@@H](c2ccc(C(F)(F)F)cc2)C[C@@H](OCc2ccc(CO)cc2)O1,?,0.5%,-7%,28%

(listing goes on)
Compound,GLA inh pH 4.5,Rango-impB inh,Rango release inh,miR-21 FLuc
O=C1/C(=C/c2ccc(N3CCCC3)cc2)NC(=S)N1C1CC1,-7,?,?,-10%
COCCN(C(=O)CCC(=O)Nc1cc(C)on1)C(C(=O)NC1CCCC1)c1ccccc1F (centres undefined),/,5.1%,19%,0%
CC(C)(CNC(=O)Cc1ccc(NS(=O)(=O)c2cccc(C(F)(F)F)c2)cc1)N1CCOCC1,/,0.2%,-20%,/
Cc1cc(OCc2cc(C(=O)N(C)Cc3ccccn3)no2)cc(C)c1Cl,/,5.7%,2%,-47%
CC(=O)O[C@H](CC(=O)O)C[N+](C)(C)C,-2,-4.0%,-1%,/
CCC(C)(C)n1nnnc1C(c1ccc2ncccc2c1)N1CCN2CCCC2C1 (centres undefined),4,2.0%,-9%,-13%
COc1ccc(C(=O)NCC(=O)OCc2ccc(F)cc2Cl)cc1OC,1,0.3%,-5%,-6%
CCCNC(=O)Cn1cnc2sc(C(=O)NCCCN3CCOCC3)c(C)c2c1=O,/,-0.1%,6%,-3%

Further records follow:
Compound,GLA inh pH 4.5,Rango-impB inh,Rango release inh,miR-21 FLuc
COc1ccc2c(c1)Cc1sc(NC(C)=O)nc1-2,-3,3.8%,-5%,-60%
O=C(C[C@H]1C/C=C\C[C@H](NC(=O)OCC2c3ccccc3-c3ccccc32)C(=O)O[C@H](c2ccccc2)CNC1=O)N[C@H](CO)Cc1ccccc1,/,-1.8%,20%,/
O=C(Nc1ccc(S(=O)(=O)Nc2cnc3ccccc3n2)cc1)c1ccccc1Br,/,0.7%,-1%,-25%
Cc1cc(C)c(NC(=O)COC(=O)CCn2c(C)csc2=O)c(C)c1,/,-2.0%,-23%,/
O=C(N1CCCCC1)N1CCN(c2ccc(Cl)cc2)CC1,2,-2.7%,-2%,-1%
Cc1ccc(N(CCC#N)C(=O)COC(=O)c2ccccn2)cc1,/,0.8%,-3%,0%
CCC(C)(C)C(=O)Nc1nnc(CCc2ccccc2)s1,/,-1.7%,22%,-51%
COc1ccc(C2C(C#N)=C(N)Oc3cc(N)ccc32)cc1 (centres undefined),/,?,?,-5%
Cc1cc(NC(=O)CCC(=O)N(Cc2ccco2)C2(C(=O)NC3CCCC3)CCCCC2C)no1 (centres undefined),/,0.7%,-9%,2%
